Vaccinia stage = blocks a specific stage of Vaccinia orthopoxvirus infection; Vaccinia-infected cells, mCherry/Venus stage reporter fluorescence; hits give low values; some inactives read as strong as hits; activity change (mCherry), % (concentration not given with the values); actives 0.01% (n = 89,000);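 active = mCherry past -33% and 40 or more points under the early reporter, replicates agreeing; inconclusive = past -33% without that gap or agreement; tested in A549 cells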;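 also: scaled between vehicle wells and reference inhibitor wells; 23 nL library stock went into each well; one replicate is shown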
Vaccinia stage Venus = further read-out of Vaccinia stage, marked with its call; activity change (Venus), %; measured here: Venus reporter, other viral stage;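 negative = less Venus signal; first of two replicates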
* hit, by the source's call; ? = inconclusive; . = no result given. Only part of the results is shown; count on the stated rates, not on these rows.

The line under a structure holds: Vaccinia stage, Vaccinia stage Venus
1) COc1ccc(S(=O)(=O)N(C)C[C@@H]2Oc3cc(C#CC4CCCC4)ccc3S(=O)(=O)N([C@@H](C)CO)C[C@@H]2C)cc1
    -30.9, -27.8
2) Cc1ccc(S(=O)(=O)Nc2cccc3c2O[C@@H](CN(C)C(=O)Nc2ccc(C(F)(F)F)cc2)[C@@H](C)CN([C@H](C)CO)C3=O)cc1
    ?, .
3) COc1ccc(C#Cc2ccc3c(c2)[C@]2(C(=O)N3)[C@H](C(=O)N3CCCCCCC3)[C@H]3C(=O)O[C@H](c4ccccc4)[C@H](c4ccccc4)N3[C@@H]2c2ccccc2OCCO)cc1
    0.7, -2.7
4) CC(C)NC(=O)N[C@H]1C=C[C@@H](CC(=O)NCCCN(C)C)O[C@@H]1CO
    6.3, 5.0
5) C[C@H](CO)N1C[C@H](C)[C@H](CN(C)C(=O)c2cnccn2)Oc2ncc(/C=C/c3ccccc3)cc2C1=O
    17.6, 12.0
6) CO[C@@H]1CN(C)C(=O)c2cc(NC(=O)Nc3ccccc3)ccc2OC[C@H](C)N(C(=O)Nc2c(C)noc2C)C[C@@H]1C
    12.1, 13.4
7) COc1ccc2c3c(n(C)c2c1)[C@H](CO)N(C)CC31CN(C(=O)c2cccnc2)C1
    -1.3, 7.2
8) C[C@H]1CCCCO[C@@H](CN(C)Cc2ccc3c(c2)OCO3)[C@@H](C)CN([C@@H](C)CO)C(=O)c2cc(NC(=O)Nc3ccc(C(F)(F)F)cc3)ccc2O1
    ?, .
9) CC=Cc1ccc2n(c1=O)C[C@H]1[C@H](CO)[C@@H](C(=O)NCCc3ccccc3)N(C(C)=O)[C@@H]21 (mixture of isomers)
    15.6, 11.0
10) COc1ccc(S(=O)(=O)Nc2ccc3c(c2)C(=O)N([C@@H](C)CO)C[C@H](C)[C@H](CN(C)Cc2ccccc2)O3)cc1
    0.0, -4.0
11) COc1ccc(NC(=O)N(C)C[C@@H]2OCc3cnnn3CCCC(=O)N([C@H](C)CO)C[C@@H]2C)cc1
    7.9, 1.2
12) CC(C)NC(=O)N[C@H]1C=C[C@@H](CC(=O)NC2Cc3ccccc3C2)O[C@@H]1CO
    16.5, 12.6
13) C[C@H]1CN([C@@H](C)CO)C(=O)c2cc(NS(=O)(=O)c3ccccc3)ccc2O[C@@H]1CN(C)Cc1ccc(C(F)(F)F)cc1
    -11.5, -7.2
14) COCC#Cc1ccc([C@H]2[C@@H](CO)N3C(=O)CN(C(=O)Nc4ccccc4F)C[C@@H]23)cc1
    6.4, -3.0
15) COc1ccccc1-c1cnc2c(c1)C(=O)N([C@H](C)CO)C[C@@H](C)[C@@H](CN(C)C(=O)CN(C)C)O2
    10.2, 4.8
16) CC(C)NC(=O)N1C[C@@H]2[C@H](c3ccccc31)[C@H](CO)N2C(=O)c1ccccc1F
    15.3, 15.5
17) CN1CCCCN2[C@@H](CO)[C@@H](c3ccc(-c4ccccc4)cc3)[C@@H]2C1
    -11.6, -11.6
18) CN1CCN(C(=O)C[C@@H]2CC[C@@H]3[C@H](COC[C@@H](O)CN3C(=O)C3CC3)O2)CC1
    11.3, 9.1
19) CC(C)CC#Cc1cnc2c(c1)C(=O)N([C@H](C)CO)C[C@H](C)[C@H](CN(C)C(=O)Cc1cccnc1)O2
    3.4, 5.6
20) COc1ccc(CN(C)C[C@@H]2Oc3ccc(N(C)C)cc3CC(=O)N([C@@H](C)CO)C[C@@H]2C)cc1
    3.8, -0.2
21) CC(C)C#Cc1cnc2c(c1)C(=O)N([C@H](C)CO)C[C@@H](C)[C@H](CN(C)Cc1cncnc1)O2
    5.5, 4.2
22) C[C@H](CO)N1C[C@H](C)[C@H](CN(C)Cc2ccc(Oc3ccccc3)cc2)Oc2ccc(NS(=O)(=O)c3ccc(F)cc3)cc2C1=O
    2.3, 0.6
23) N#C[C@@H]1[C@@H](c2ccc(-c3ccccc3F)cc2)[C@@H](CO)N1C(=O)C1CC1
    4.8, 3.0
24) Cc1noc(C)c1S(=O)(=O)N(C)C[C@H]1Oc2ccc(NC(=O)CCCCCC(=O)Nc3ccccc3N)cc2CC(=O)N([C@H](C)CO)C[C@@H]1C
    16.5, 7.5
25) C[C@@H]1CN([C@H](C)CO)C(=O)c2cc(-c3cccnc3)cnc2O[C@H]1CN(C)C
    21.9, 9.4
26) O=C(NCC1CC1)[C@H]1[C@H](CO)[C@H]2Cn3c(ccc(-c4cccnc4)c3=O)[C@@H]1N2C(=O)C1CCCC1
    19.2, 14.1
27) COc1ccc(NC(=O)Nc2ccc3c(c2)C(=O)N([C@@H](C)CO)C[C@H](C)[C@H](CN(C)C(=O)Nc2ccc(F)cc2)O3)cc1
    15.8, 13.4
28) CO[C@H]1CC[C@@H]2CCN(C)C(=O)CCCN(C)C(=O)c3cccc(C#N)c3OC[C@H]1O2
    17.8, 15.4
29) CO[C@@H]1CN(C)C(=O)c2cc(NC(C)=O)ccc2OC[C@H](C)N(Cc2ccccc2C(=O)O)C[C@@H]1C
    22.6, 19.5
30) C[C@H]1CN([C@@H](C)CO)C(=O)c2cc(NC(=O)NC3CCCCC3)ccc2O[C@H]1CN(C)S(=O)(=O)c1ccc(F)cc1
    -20.5, -13.8

In another format: entries from further up
| nr | SMILES | Vaccinia stage | Vaccinia stage Venus |
| --- | --- | --- | --- |
| 30 | C[C@H]1CN([C@@H](C)CO)C(=O)c2cc(NC(=O)NC3CCCCC3)ccc2O[C@H]1CN(C)S(=O)(=O)c1ccc(F)cc1 | -20.5 | -13.8 |
| 9 | CC=Cc1ccc2n(c1=O)C[C@H]1[C@H](CO)[C@@H](C(=O)NCCc3ccccc3)N(C(C)=O)[C@@H]21 (mixture of isomers) | 15.6 | 11.0 |
| 29 | CO[C@@H]1CN(C)C(=O)c2cc(NC(C)=O)ccc2OC[C@H](C)N(Cc2ccccc2C(=O)O)C[C@@H]1C | 22.6 | 19.5 |

The main list resumes; the three compounds before the break are reprinted first.
The line under a structure holds: Vaccinia stage, Vaccinia stage Venus
28) CO[C@H]1CC[C@@H]2CCN(C)C(=O)CCCN(C)C(=O)c3cccc(C#N)c3OC[C@H]1O2
    17.8, 15.4
29) CO[C@@H]1CN(C)C(=O)c2cc(NC(C)=O)ccc2OC[C@H](C)N(Cc2ccccc2C(=O)O)C[C@@H]1C
    22.6, 19.5
30) C[C@H]1CN([C@@H](C)CO)C(=O)c2cc(NC(=O)NC3CCCCC3)ccc2O[C@H]1CN(C)S(=O)(=O)c1ccc(F)cc1
    -20.5, -13.8
31) Cc1ccc(S(=O)(=O)Nc2ccc3c(c2)CC(=O)N([C@@H](C)CO)C[C@@H](C)[C@H](CN(C)S(=O)(=O)c2cn(C)cn2)O3)cc1
    12.3, 11.6
32) Cc1noc(C)c1NC(=O)Nc1ccc2c(c1)CC(=O)N([C@H](C)CO)C[C@@H](C)[C@@H](CN(C)C(=O)Nc1c(C)noc1C)O2
    20.8, 8.0
33) CCC(=O)Nc1ccc2c(c1)C(=O)N(C)[C@H]1CC[C@H](CC(=O)Nc3cccc(OC)c3)O[C@@H]1CO2
    8.2, 3.3
34) C[C@@H]1CCCCO[C@H](CN(C)C(=O)Nc2cccc3ccccc23)[C@@H](C)CN([C@H](C)CO)C(=O)c2cc(NC(=O)Nc3ccc(C(F)(F)F)cc3)ccc2O1
    -0.3, 6.0
35) CN1c2ccc(-c3cccc(F)c3)cc2[C@H]2[C@H](CCN2C(=O)Cc2ccccc2)[C@H]1CO
    ?, .
36) C[C@H](CO)N1C[C@H](C)[C@H](CN(C)Cc2ccc(C(F)(F)F)cc2)Oc2c(NC(=O)c3ccncc3)cccc2C1=O
    14.0, 9.1
37) O=C(NC[C@H]1N[C@H](CO)[C@@H]1c1ccc(C2=CCCCC2)cc1)c1ccc(F)cc1
    0.9, 22.9
38) COc1ccc(NC(=O)O[C@H](c2ccc(OC)c(O)c2)[C@@H](CCO)OC)cc1
    29.1, 8.5
39) C[C@@H]1CN([C@H](C)CO)C(=O)c2cc(-c3ccc(C(=O)N(C)C)cc3)cnc2O[C@@H]1CN(C)C(=O)c1ccncc1
    15.6, 10.8
40) CC(C)NC(=O)N(C)C[C@H]1OCCCC[C@@H](C)Oc2ccc(NS(C)(=O)=O)cc2C(=O)N([C@@H](C)CO)C[C@@H]1C
    21.9, 3.3
41) COCC(=O)N1CC(=O)N2[C@H](CO)[C@H](c3ccc(-c4cccnc4)cc3)[C@H]2C1
    18.4, 12.2
42) O=C([C@@H]1[C@@H](CO)[C@@H]2Cn3c(ccc(-c4ccccc4F)c3=O)[C@H]1N2C(=O)C1CC1)N1CCOCC1
    14.0, 8.1
43) Cc1noc(C)c1NC(=O)N(C)C[C@@H]1Oc2ncc(C#Cc3ccc(C(F)(F)F)cc3)cc2C(=O)N([C@H](C)CO)C[C@@H]1C
    ?, .
44) C[C@@H]1CN([C@H](C)CO)C(=O)c2cc(-c3cccc(F)c3)cnc2O[C@@H]1CN(C)C(=O)Nc1cc(F)ccc1F
    5.9, 1.0
45) CN1CCN(C(=O)C[C@H]2CC[C@@H](NC(=O)Nc3ccccc3F)[C@@H](CO)O2)CC1
    1.3, 17.4
46) N#C[C@@H]1[C@@H](c2ccccc2C2=CCCCC2)[C@@H](CO)N1S(=O)(=O)c1ccccc1
    15.9, 7.8
47) CCC(=O)Nc1ccc2c(c1)C(=O)N(C)[C@H]1CC[C@@H](CC(=O)N[C@H](C)c3ccccc3)O[C@@H]1CO2
    2.5, -4.3
48) COc1ccc(CN(C)C[C@H]2OCCCC[C@@H](C)Oc3ccc(NC(=O)C4CCCCC4)cc3C(=O)N([C@H](C)CO)C[C@H]2C)cc1
    ?, .
49) COc1ccc(C#Cc2ccc3c(c2)[C@H]2[C@H](CCN2C(=O)c2ccccc2F)[C@H](CO)N3)cc1
    -6.6, -8.8
50) CCCNC(=O)[C@H]1[C@H](CO)[C@H]2Cn3c(ccc(-c4ccccc4OC)c3=O)[C@H]2N1C(=O)CC
    6.9, 2.8
51) CCC(=O)N(C)C[C@H]1[C@@H](c2ccc(-c3cccnc3)cc2)[C@@H](CO)N1C(C)=O
    3.6, 5.8
52) CO[C@@H]1CN(C)C(=O)c2cc(NC(=O)NC(C)C)ccc2OC[C@H](C)N(CC2CC2)C[C@H]1C
    12.5, 6.8
53) O=C(Nc1ccccc1F)N[C@@H]1CC[C@H](CCNS(=O)(=O)c2ccc(Cl)cc2)O[C@H]1CO
    -16.4, -15.3
54) C/C=C/c1ccc([C@H]2[C@H]3CN(S(=O)(=O)c4ccccc4)CCCCN3[C@H]2CO)cc1
    -13.7, -12.2
55) COc1ccc(C#Cc2ccc3c(c2)[C@@H]2[C@@H](CCN2C(=O)c2ccccn2)[C@@H](CO)N3)cc1
    -11.7, -9.1
56) COc1ccc(NC(=O)N2CC3(C2)CN(CC2CC2)[C@@H](CO)c2c3c3ccc(OC)cc3n2C)cc1
    -0.4, 7.3
57) C[C@@H]1CN([C@H](C)CO)C(=O)CCCn2cc(nn2)CO[C@@H]1CN(C)S(=O)(=O)c1cccc(C#N)c1
    29.7, 12.3
58) C[C@H]1CN([C@@H](C)CO)C(=O)c2cc(-c3ccc(C#N)cc3)cnc2O[C@H]1CN(C)C(=O)CN(C)C
    9.6, 5.5
59) CCC(=O)N1[C@@H]2CN(C(=O)Nc3ccc(Cl)cc3)c3ccccc3[C@@H]2[C@@H]1CO
    0.4, 5.3
60) C[C@H](CO)N1C[C@H](C)[C@@H](CN(C)Cc2ccc(-c3ccccc3)cc2)Oc2ccc(NC(=O)Cc3cn(C)c4ccccc34)cc2C1=O
    -3.8, -1.5

Values by screen from the entries so far.
Vaccinia stage Venus for nos. 51 to 54: 5.8, 6.8, -15.3, -12.2
Vaccinia stage for nos. 51 to 54: 3.6, 12.5, -16.4, -13.7

New compounds follow:
The line under a structure holds: Vaccinia stage, Vaccinia stage Venus
61) CO[C@H]1CN(C)C(=O)c2ccc(NC(C)=O)cc2OC[C@H](C)N(C(=O)c2ccccc2)C[C@@H]1C
    6.2, 3.3
62) COc1ccc2c3c(n(C)c2c1)[C@H](CO)N(C(=O)CC1CC1)CC31CCN(C(=O)C2CCCC2)CC1
    0.2, -6.3
63) Cc1noc(C)c1NC(=O)Nc1ccc2c(c1)C(=O)N([C@H](C)CO)C[C@H](C)[C@@H](CN(C)S(=O)(=O)c1cn(C)cn1)O2
    9.4, 14.9
64) C[C@@H]1CN([C@H](C)CO)C(=O)Cc2cc(NC(=O)C3CCCCC3)ccc2O[C@H]1CN(C)C(=O)Nc1ccc2c(c1)OCO2
    6.5, 11.1
65) CC(C)NC(=O)Nc1cccc2c1O[C@H](CN(C)Cc1ccc(C(=O)O)cc1)[C@H](C)CN([C@@H](C)CO)C2=O
    18.6, 12.3
66) COCC(=O)N1[C@H](CO)[C@H](c2ccccc2)[C@@H]1C#N
    31.1, 14.3
67) O=C(N[C@H]1CC[C@H](CCNC(=O)C2CC2)O[C@@H]1CO)c1ccncc1
    8.7, 6.7
68) CCCN(C)C[C@H]1Oc2cc(C#Cc3ccc(F)cc3)ccc2S(=O)(=O)N([C@@H](C)CO)C[C@H]1C
    -32.9, -29.8
69) Cc1cccc(-c2ccc([C@@H]3[C@H]4CN(S(=O)(=O)c5cccc(C)c5)CCCCN4[C@H]3CO)cc2)c1
    -29.9, -26.5
70) COCCNC(=O)C[C@H]1C=C[C@H](NS(=O)(=O)c2ccc(C)cc2)[C@H](CO)O1
    -0.2, -0.5
71) CN1C(=O)c2cc(NC(=O)C3CCCC3)ccc2OC[C@@H]2O[C@@H](CC(=O)NCc3ccccc3F)CC[C@H]21
    4.6, -1.4
72) C[C@H](CO)N1C[C@H](C)[C@H](CN(C)Cc2cncnc2)Oc2cc(-c3cncnc3)ccc2S1(=O)=O
    15.0, 5.5
73) CN(C)C(=O)c1ccc(-c2ccc([C@@H]3[C@H]4CN(CCC(F)(F)F)CCCCN4[C@H]3CO)cc2)cc1
    -3.7, -17.8
74) O=C(C[C@H]1C=C[C@@H](NC(=O)C2CC2)[C@@H](CO)O1)Nc1nccs1
    -5.7, 0.9

Compound activity (PubChem BioAssay)
